Source: PubChem BioAssay (ICCB-Longwood Screening Facility, Harvard Medical School)
Sa growth 42C – S. aureus growth inhibition; 170,000 compounds, 0.53% hits; relative growth, % (concentration not given with the values); S. aureus RN4220 growth, OD600, 20 h, 42 °C; hits give low values;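 active means growth at 42 °C up to 50% and 20 or more points under that at 30 °C, or under 10% at both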;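 further: 300 nL library stock went into each well; scaled to the means of positive and negative controls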
HCMV NEC inh – cytomegalovirus nuclear egress complex inhibition. 190,000 compounds, 0.15% hits. HTRF UL50-UL53 interaction, normalized percent inhibition. inhibition, % (concentration not given with the values);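 active means both replicates at 50% or more, plus weaker picks with an unusually low signal ratio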;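 further: stock transfer was 100 nL into about 20 µL; 0% = negative control wells and 100% = wells with untagged competitor protein; inactives centre near -12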
GIV-Gai inh – GIV-Galpha-i interaction inhibition; P08753; Galpha-i3/FITC-GIV peptide fluorescence polarization, 90 min; hits give low values; scaled: aluminum fluoride 0%, vehicle 100%; AID 1224905; 210,000 compounds, 0.42% hits; percent of control (FP), % (test concentration not listed);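 active means replicate mean at 85% of control or lower, very high polarization wells dropped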;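 further: wells of about 15 µL received 100 nL stock; the first replicate is given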
Target sequence (P08753 whole entry, looked up): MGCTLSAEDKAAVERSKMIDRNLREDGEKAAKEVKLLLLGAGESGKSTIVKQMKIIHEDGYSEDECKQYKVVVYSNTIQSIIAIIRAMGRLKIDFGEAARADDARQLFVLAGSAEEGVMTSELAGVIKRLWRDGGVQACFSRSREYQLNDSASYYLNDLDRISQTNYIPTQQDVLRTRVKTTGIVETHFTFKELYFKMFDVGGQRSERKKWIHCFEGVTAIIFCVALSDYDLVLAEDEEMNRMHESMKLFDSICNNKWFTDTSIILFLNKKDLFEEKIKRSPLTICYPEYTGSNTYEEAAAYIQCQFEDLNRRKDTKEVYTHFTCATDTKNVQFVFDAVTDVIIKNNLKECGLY
Sa growth 42C second temp – second read-out of Sa growth 42C, no call of its own (marks repeat the call); relative growth, %; measured here: growth at 30 °C;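 optical density after 20 h as mean of two plates; 100% = untreated growth and lower means inhibition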
An asterisk follows results filed as active; . = not tested or not shown. Hits appear at their usual frequency; about 0.83% have a hit in one of these screens.

Structure	Sa growth 42C	Sa growth 42C second temp	HCMV NEC inh	GIV-Gai inh
Fc1ccc(-c2nc3c4ccccc4c4ccccc4c3[nH]2)cc1	108.0	68.5	5.3	.
CC(C)OC(=O)CSc1nnc(-c2ccc(Cl)cc2Cl)o1	97.0	93.5	-3.7	96.0
Cc1cc(F)ccc1S(=O)(=O)N1CCc2cc3cccc(C)c3nc21	.	.	-8.6	99.3
Cc1ccc2nc3c(cc(C(=O)NC4CCCC4)c(=N)n3C(C)C)c(=O)n2c1	104.0	93.4	-44.4	105.9
COc1ccc(Br)cc1CNC(=O)c1cnc2sc(N3CCC(C)CC3)nn2c1=O	107.5	89.8	.	96.6
Cn1c(NN)nc2sc3c(c2c1=O)CCCC3	105.7	56.9	-20.6	104.2
CCc1ccc2c(c1)-c1ccccc1S(=O)(=O)N2CC(=O)N1CC(=O)Nc2ccccc21	.	.	-11.5	101.9
CCc1ccccc1NC(=O)[C@H](Cc1ccccc1)N1Cc2ccccc2C1=O	111.3	88.5	-31.2	106.5

(cont.)
Structure	Sa growth 42C	Sa growth 42C second temp	HCMV NEC inh	GIV-Gai inh
COc1ccc2c(-c3ccccc3)cc(=O)oc2c1OC	97.2	82.4	-95.6	.
NS(=O)(=O)c1ccc(NC(=O)C(=O)Nc2ccc3nc4n(c(=O)c3c2)CCCCC4)cc1	100.0	88.3	-4.2	101.5
C/C(=N\OC(=O)c1ccc(C(F)(F)F)cc1)c1ccc[nH]1	-0.3*	5.8*	-26.9	108.6
CC(C)=C1C2C=CC1C1C(=O)N(c3ccc4c(c3)OCO4)C(=O)C21 (stereo unspecified)	87.6	86.9	0.3	104.4
COc1ccc(OCC(O)CNC(=O)c2ccc(OC(F)(F)F)cc2)cc1 (stereo unspecified)	98.0	86.1	-31.1	97.5
Cc1cc(C(=O)Cn2cnc3ccccc3c2=O)c(C)n1-c1ccccc1	105.0	93.5	4.5	.
COC(=O)c1cn[nH]c1N	92.0	86.6	-32.4	106.3
O=C(CN1CCCN(Cc2ccccc2Cl)S1(=O)=O)NCc1ccccc1	97.1	90.1	.	107.4

Further records:
Structure	Sa growth 42C	Sa growth 42C second temp	HCMV NEC inh	GIV-Gai inh
CCc1c(C)sc2c1CCN(CC(=O)Nc1sc(C)cc1C(=O)OC)C2c1ccccc1 (stereo unspecified)	.	.	-0.7	97.6
Cn1cc(Br)c(-c2ccc(NC(=O)Nc3ccccc3)cc2)n1	42.1	32.6	-34.5	106.0
COc1cc(OC)cc(N2C(=O)CSC23C(=O)Nc2ccccc23)c1 (stereo unspecified)	93.9	83.1	.	102.7
Cc1ccc(Cl)cc1N1CCN(C(=O)CCCCCn2c(=O)[nH]c3ccccc3c2=O)CC1	124.6	82.6	.	101.2
O=C(CNC(=O)c1ccc(Cl)cc1)OCc1cc(=O)n2nc(C3CCCCC3)sc2n1	92.3	96.3	.	106.4
COc1cccc(N2CCN(C(=O)C3Cc4ccccc4N3C(C)=O)CC2)c1 (stereo unspecified)	85.2	89.8	.	103.3
O=C(NC1CC(=O)N(c2ccccc2)C1)c1ccc(S(=O)(=O)N2CCCCC2)cc1 (stereo unspecified)	85.9	87.6	.	99.8
COc1ccc(OC)c2c(=O)cc(C(=O)O)oc12	105.8	90.3	-58.2	105.1

Copied from the list.
Value for COc1cccc(N2CCN(C(=O)C3Cc4ccccc4N3C(C)=O)CC2)c1 (stereo unspecified) under Sa growth 42C second temp: 89.8
Value for Cn1cc(Br)c(-c2ccc(NC(=O)Nc3ccccc3)cc2)n1 under Sa growth 42C: 42.1

2 consecutive entries from above, quoted:
Structure	Sa growth 42C	Sa growth 42C second temp	HCMV NEC inh	GIV-Gai inh
O=C(NC1CC(=O)N(c2ccccc2)C1)c1ccc(S(=O)(=O)N2CCCCC2)cc1 (stereo unspecified)	85.9	87.6	.	99.8
COc1ccc(OC)c2c(=O)cc(C(=O)O)oc12	105.8	90.3	-58.2	105.1

By substructure: the entries above containing a Cl atom
Structure	Sa growth 42C	Sa growth 42C second temp	HCMV NEC inh	GIV-Gai inh
CC(C)OC(=O)CSc1nnc(-c2ccc(Cl)cc2Cl)o1	97.0	93.5	-3.7	96.0
O=C(CN1CCCN(Cc2ccccc2Cl)S1(=O)=O)NCc1ccccc1	97.1	90.1	.	107.4
Cc1ccc(Cl)cc1N1CCN(C(=O)CCCCCn2c(=O)[nH]c3ccccc3c2=O)CC1	124.6	82.6	.	101.2
O=C(CNC(=O)c1ccc(Cl)cc1)OCc1cc(=O)n2nc(C3CCCCC3)sc2n1	92.3	96.3	.	106.4

(continued)
Structure	Sa growth 42C	Sa growth 42C second temp	HCMV NEC inh	GIV-Gai inh
Cc1nc(Nc2ccc(NS(=O)(=O)c3cccc(Cl)c3)cc2)cc(N(C)C)n1	.	.	-0.2	99.8
Cc1ccccc1NC(=O)N1CCN(c2cc(=O)n3nc(-c4ccccc4C)sc3n2)CC1	.	.	12.4	99.2
COc1ccc(CNC(=O)Cc2cn(C)c3ccccc23)c(OC)c1	82.3	80.8	.	100.8
COC(=O)c1ccc(NC(=O)CN2CCN(c3ccc(Cl)cc3)CC2)cc1	80.3	90.8	.	106.6
CC(C)(CSc1ccccn1)NS(=O)(=O)c1ccccc1	107.2	99.9	-3.1	99.5
COc1cc(C2c3c(oc4ccccc4c3=O)C(=O)N2Cc2ccc(C)cc2)ccc1O (stereo unspecified)	93.2	82.2	.	97.1
Cc1ccc(NC(=O)CC2(CC(=O)O)CCCC2)cc1	114.1	89.7	-4.4	103.7
Cc1cccc(-c2nc(C)c(CCC(C)C)c(=O)[nH]2)c1	93.1	86.1	-18.3	102.6

(next part)
Structure	Sa growth 42C	Sa growth 42C second temp	HCMV NEC inh	GIV-Gai inh
CCC(=O)NCc1nc2ccccc2n1Cc1c(F)cccc1Cl	.	.	-26.4	104.8
CC(C)=NNC(=S)NC1CC2CCC1C2 (stereo unspecified)	93.5	95.5	-6.4	101.7
Cc1ccc(NS(=O)(=O)c2cccc(C(=O)Nc3cc(C)on3)c2)cc1	98.9	98.8	9.7	.
CC(Sc1nnc(-c2ccco2)n1-c1ccccc1)C(=O)NC(c1ccccc1)c1ccccc1 (stereo unspecified)	85.8	113.1	3.9	105.4
Cc1ccc2oc(=O)n(CC(=O)N3CCOCC3)c2c1	96.2	86.4	-25.1	98.3
Cc1cc2n(n1)CCC(=O)N2C(C)C(=O)Nc1cc(Cl)ccc1C (stereo unspecified)	.	.	-2.7	102.3
CCOC(=O)C1=C(C)N=c2s/c(=C\c3cccc(Br)c3)c(=O)n2C1c1ccc(OC(C)=O)cc1 (stereo unspecified)	.	.	-17.8	101.5
CNC(=O)C1=NCCCc2cc(OC)c(OC)cc21	117.9	84.6	.	103.8

Additional records follow:
Structure	Sa growth 42C	Sa growth 42C second temp	HCMV NEC inh	GIV-Gai inh
CC(C)(C)c1ccccc1OCC(=O)O	109.4	98.5	-31.4	101.2
O=C(COC(=O)c1ccc2c(c1)OCO2)Nc1ccc(S(=O)(=O)N2CCCC2)cc1	83.0	86.8	-19.8	.
Cc1cccc(Cn2cc(S(=O)(=O)c3ccc(Cl)cc3)c(=O)c3cc4c(cc32)OCO4)c1	96.6	83.0	2.9	102.5
COc1ccc(CC(=O)Nc2ccc3nc(NS(C)(=O)=O)sc3c2)cc1	.	.	-31.5	102.5
O=C(CSc1ncnc2ccccc12)c1ccc[nH]1	73.9	93.4	-23.1	.
O=C(CCC(=O)Nc1ccccc1)Nc1ccccc1	101.8	96.1	3.0	101.0
CCOc1ccc(-c2cc(C(=O)Nc3ccc(S(=O)(=O)NC(C)=O)cc3)c3ccccc3n2)cc1	.	.	-59.4	110.3
Cc1cc(NN)nc2ccccc12	106.7	9.7	-24.2	.

Additional results follow.
Structure	Sa growth 42C	Sa growth 42C second temp	HCMV NEC inh	GIV-Gai inh
COc1ccccc1NC(=O)c1cc2c(-c3ccccc3)nn(-c3ccccc3)c2s1	101.9	101.6	13.4	108.3
O=C(NCc1ccccc1Cl)c1ccc2c(c1)NC(=O)C(CS(=O)(=O)Cc1ccc(F)cc1Cl)N2 (stereo unspecified)	99.1	85.5	.	299.2
CCCCNC(=O)c1cc2c(=O)n3cccc(C)c3nc2s1	92.9	109.5	-26.6	102.1
Cc1c(NC(=O)c2cc3n(n2)C(C(F)(F)F)CC(c2ccc(Cl)c(Cl)c2)N3)c(=O)n(-c2ccccc2)n1C (stereo unspecified)	.	.	-16.6	94.1
COc1cccc(C(=O)NCCO)c1OC	103.6	95.3	-18.9	104.7
COc1ccc(Cl)cc1N(C(C)=O)c1nc(C)cc(C)c1C#N	103.7	85.2	-4.1	103.2
O=C(OCC(=O)c1ccccc1)C1=COCCO1	93.8	93.7	-10.4	.
O=C(O)C(Cc1c[nH]c2ccccc12)N1C(=O)c2ccccc2C1=O (stereo unspecified)	70.3	88.8	-15.6	.

The list continues.
Structure	Sa growth 42C	Sa growth 42C second temp	HCMV NEC inh	GIV-Gai inh
O=C(N/N=C/c1ccc(O)cc1)Nc1cccc2nsnc12	65.3	70.4	-11.9	104.3
O=C(O)COc1ccc2c(c1)CCC2	113.2	87.0	-17.6	.
CCOc1ccccc1C(=O)NC(C(=O)NCc1ccco1)C(C)C (stereo unspecified)	104.0	97.5	-11.5	.
Fc1cc(F)cc(CN2CCCC2c2ccc(Cl)cc2)c1 (stereo unspecified)	.	.	-21.3	96.6
C=CCNC(=O)c1ccc(NS(=O)(=O)CC)cc1	102.6	105.1	-20.1	104.1
COc1ccc(NC(=O)OCC(F)(F)C(F)F)cc1	111.8	100.3	8.9	.
CCOc1ccc(CCNC(=O)CS(=O)(=O)Cc2nc(-c3ccc(OC)cc3)oc2C)cc1	105.9	91.0	-16.4	105.0
CCOc1cccc(/C=N/N2C(C)CCCC2C)c1O (stereo unspecified)	81.5	93.8	-22.6	.

(listing goes on)
Structure	Sa growth 42C	Sa growth 42C second temp	HCMV NEC inh	GIV-Gai inh
Cc1c(C(=O)OCC2=NC3SC4=C(CCCC4)C3C(=O)N2)oc2ccccc12 (stereo unspecified)	97.6	95.9	-26.2	.
CCOc1ccc(Nc2nc(Nc3ccc(OCC)cc3)nc(N3CCOCC3)n2)cc1	113.3	95.1	-28.2	109.6
O=C(O)c1snc2c(=O)[nH]cnc12	87.8	113.4	-56.8	103.8
CC(=O)n1c(=O)sc2ccccc21	110.9	98.5	-9.0	.
Nc1ccc(OCC(=O)O)cc1	124.3	97.1	0.1	97.2
CC1=CC(C)(C)N2C(=O)C3(OCCO3)c3cc(C)cc1c32	101.1	101.9	-27.7	105.7
COc1cccc2c1cc1c(=O)n(CC(=O)NCCc3ccc(S(N)(=O)=O)cc3)nc(C)n12	102.8	96.8	1.4	100.8
O=C(c1ccc2c(c1)N(Cc1ccccc1)C(=O)CS2)N1CCC2(CC1)OCCO2	92.0	89.5	-17.5	103.2

Continuation.
Structure	Sa growth 42C	Sa growth 42C second temp	HCMV NEC inh	GIV-Gai inh
O=C(c1cccnc1Cl)N1N=C2/C(=C/c3ccco3)CCCC2C1c1ccco1 (stereo unspecified)	109.9	94.3	-39.7	.
CCc1ccc(N2CCC(C(=O)NC3CC3)C2=O)cc1 (stereo unspecified)	.	.	-31.6	101.0
Cc1ccccc1Cn1ccn(-c2ccccc2)c(=O)c1=O	.	.	-47.8	106.2
N#Cc1cc2c(nc1SCC(=O)N1CCOCC1)CCC2	76.3	103.9	13.5	96.8
Cc1noc(C)c1C(=O)N1CCCC1c1ccccc1F (stereo unspecified)	.	.	-15.7	103.9
O=S(=O)(Nc1ccc(-c2ccc(N3CCCC3)nn2)cc1)c1cccc(C(F)(F)F)c1	108.1	102.9	.	110.6
CN(Cc1ccccc1)C(=O)CN(C)S(=O)(=O)c1ccc2c(c1)C(C)(C)C(=O)N2C	97.0	82.2	.	104.8
CCc1ccc(-n2c(=O)c3c(C)c(C(=O)N(C)C)sc3n(CC(=O)NCc3ccco3)c2=O)cc1	131.4	101.2	0.9	99.5

Further records.
Structure	Sa growth 42C	Sa growth 42C second temp	HCMV NEC inh	GIV-Gai inh
O=C(CSC1=NC(=O)C(Cc2ccccc2)C(=O)N1)NCc1ccccc1 (stereo unspecified)	105.0	96.2	3.2	.
COc1cccc(-c2nc(SCC(=O)NCc3ccco3)c3c(=O)n(C)c(=O)n(C)c3n2)c1	95.6	89.4	.	96.3
CCNCc1ccc(OCC)c(OC)c1	74.3	85.2	-34.5	.
CCN(CC)S(=O)(=O)c1ccc(NC(=O)c2ccccc2Cl)cc1	84.8	72.2	.	98.8
COc1ccc(-c2nc(SC(CC(=O)NCCN3CCOCC3)c3ccc(OC)cc3)n[nH]2)cc1 (stereo unspecified)	98.1	84.3	-9.7	100.1
